GLA inh pH 4.5 – blocks human alpha-galactosidase A at pH 4.5 | activity change, negative = inhibition, % at 105 µM | 230,000 tested, under 10 active | purified enzyme, 4-MU-alpha-Gal fluorescence, pH 4.5 | P06280 | AID 1467; inconclusive = small, poorly fitted or top-dose-only inhibition, or a rising curve; inactive = flat fitted curve, though single readings scatter; no compound was filed as active;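 further: 0% = full activity with enzyme and -100% = basal without enzyme; dose as in the result columns while the protocol names 77 µM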
Target sequence (P06280 whole entry, looked up): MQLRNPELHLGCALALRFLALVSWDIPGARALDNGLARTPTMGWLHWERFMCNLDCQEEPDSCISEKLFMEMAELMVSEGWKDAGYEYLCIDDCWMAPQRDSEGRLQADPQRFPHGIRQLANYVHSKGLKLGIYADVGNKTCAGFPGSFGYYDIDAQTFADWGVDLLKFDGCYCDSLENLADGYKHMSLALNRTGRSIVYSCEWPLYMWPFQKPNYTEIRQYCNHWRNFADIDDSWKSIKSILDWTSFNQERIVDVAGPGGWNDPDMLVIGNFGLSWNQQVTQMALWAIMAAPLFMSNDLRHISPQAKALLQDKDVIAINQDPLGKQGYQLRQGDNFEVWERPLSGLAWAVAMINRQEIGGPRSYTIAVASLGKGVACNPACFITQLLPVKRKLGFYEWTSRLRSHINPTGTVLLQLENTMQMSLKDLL
Rango release inh – inhibitors of RanGTP-induced Rango-importin beta complex dissociation; AID 540253; O95149+P62826; Potency, µM (highest dose often 46.1 µM), inactives show at the top dose activity change, negative = inhibition; hit rate 0.071% among 340,000; Biochemical FRET Rango-importin beta, RanGTP-induced dissociation; active means falling FRET ratio curve, often poorly fitted, with flat reads before Ran was added; inconclusive means other falling curves, or compound fluorescence or quenching; inactive means flat or rising ratio curve;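 further: potency means the concentration at half of the fitted maximal effect; % of control where 0% means no effect; nearly all actives have a fitted effect of over 45% in size; -100% = wells without RanGTP and RCC1; the record marks most hits as doubtful in a second field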
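Rango/importin beta premix (0.1/0.25 uM final), PBS + 1 mM DTT + 0.02% Tween-20 + 0.1% BSA; cpd 5 min RT; FRET pre-read; + RanGTP-RCC1 (0.6 uM Ran, 2 mM GTP, 0.2 uM RCC1); 45 min RT; FRET post-read, ex 430, em 486/530 nm.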
Rango complex inh – prevents formation of the Rango-importin beta complex; Q14974; Rango CFP/YFP FRET sensor + importin beta, 45 min; Potency, µM (top dose mostly 92.2 µM), for the others: at the highest dose inhibition of complex formation; hit rate 0.031% among 340,000; active = rising FRET ratio curve, often small or poorly fitted; inconclusive = mostly compound fluorescence or quenching in the first reads; inactive = flat curves in all reads;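 further: potency means the concentration at half of the fitted maximal effect; 0% = DMSO wells and 100% = buffer wells lacking importin beta; nearly all actives have a fitted effect of over 15% in size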
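FRET biosensor (snurportin 1 IBB flanked by EYFP and cerulean), 50 nM, with compound 5 min, then 0.125 microM importin beta in PBS, 1 mM DTT, 0.02% Tween-20, 0.1% BSA. CFP/YFP ratio read after 45 min at room temperature; pre-read flags interference.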
miR-21 reporter – raises the signal of a miR-21 reporter; HeLa miR-21 FLuc reporter, luciferase, 48 h; Potency, µM (top dose mostly 38.3 µM), inactives show top-dose reporter change, positive = more light; 340,000 tested, under 10 active; active = well fitted rising curve with a large enough effect; inconclusive = small, poorly fitted or top-dose-only effect; inactive = no such curve, though single readings can be large or run the other way;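 further: % of control where 0% means no effect; miR-21 action dims this reporter so a rising signal means less miR-21 action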
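Using DMEM plus 10% FBS, HeLa miR-21-FLuc cells are incubated with test compounds (final up to about 40uM) for 48 hours; firefly luciferase signal is then imaged following reagent-mediated lysis.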
Numbers without * were called inactive; ? = inconclusive; / = no result given; & = joins results of further samples. This is a subset (hit frequency here may not be typical).

SMILES | GLA inh pH 4.5 | Rango release inh | Rango complex inh | miR-21 reporter
COc1ccc(NCN2C(=O)C3C4C=CC(C4)C3C2=O)cc1 (centres undefined) | -3 | 4% | -2.8% | -8%
O=C(O)C1CCCN1C(=O)c1cccs1 (centres undefined) | 4 | 8% | 5.6% | -6%
[O-]/[N+](=C/c1ccco1)c1ccccc1 | / | -2% | -3.6% | -5%
CCN(CC(=O)NCc1ccncc1)S(=O)(=O)c1ccccc1 | / | 7% | 0.1% | -1%
Cc1ccc(-n2c(CCc3nc4ccccc4[nH]3)n[nH]c2=S)cc1 | 9 | -7% | 1.6% | 1%
O=C(CN1CCC(n2nnc3cc(C(F)(F)F)ccc32)CC1)NNC(=O)c1ccco1 | -6 | 23% | -2.5% | 0%
O=C(N/N=C/c1ccccc1Cl)c1cccc(F)c1 | 6 | 0% | -0.3% | -56%
COc1cc(C(=O)NC2CCCNC2)cc(OC)c1OC (centres undefined) | 2 | / | / | -6%
Cc1cc(C)cc(NC(=O)CCNS(=O)(=O)c2cc(Br)cnc2N)c1 | / | ? | 3.2% | 4%
NNC(=O)C1=NOC(CNc2ncc(C(F)(F)F)cc2Cl)C1 (centres undefined) | -1 | -15% | 0.2% | 1%
COc1ccc2[nH]c(C(=O)O)c(NS(=O)(=O)c3ccc(OC)c(OC)c3)c2c1 | -3 | 2% | -2.4% | -3%
O=C(CCCCCNc1nc(=S)[nH]c2ccccc12)NCCc1ccc(Cl)cc1 | 3 | -4% | -4.9% | 3%
Cc1cccc(N(C)C(=O)CCS(=O)(=O)c2cc3c(cc2Cl)NC(=O)CO3)c1 | / | 19% | -5.9% | -4%
COc1ccc(NCc2nnc(SCC(=O)Nc3nc(-c4ccccc4)cs3)n2-c2ccccc2)cc1 | 11 | -8% | 6.7% | 0%
COc1ccc(NC(=O)CN(C)C(=O)c2ccc(NS(=O)(=O)c3ccc(C)c([N+](=O)[O-])c3)cc2)cc1 | / | 19% | -0.1% | /
CCCC(=O)Nc1ccc(C(=O)Nc2nnc(COC)s2)cc1 | 10 | 5% | -3.2% | -10%
COc1ccc(-c2cc(C#N)nc(N3CCNCC3)n2)cc1 | -10 | -9% | -2.3% | -6%
CCOc1ccc(NC(=O)COC(=O)CSCC(=O)Nc2ccc(C)cc2C)cc1 | / | -4% | -0.1% | /
C=CC(COCc1ccccc1)N(Cc1ccccc1)S(=O)(=O)c1ccccc1Br (centres undefined) | 1 | -11% | -4.2% | -2%
O=C(O)CCCCCN=Cc1c(O)c2ccccc2oc1=O | 1 | -2% | -1.3% | 11%
COc1ccc(C(=O)OCC(=O)N2CCOCC2)cc1S(=O)(=O)N1CCOCC1 | / | -20% | 0.5% | /
NC(=S)N/N=C/c1coc2ccc(O)cc2c1=O | 0 | -2% | -3.2% | 6%
Cc1ccc2oc(-c3cccc(NC(=O)c4ccc(Br)o4)c3)nc2c1 | -2 | -9% | 1.0% | -50%
CC(C)(O)C#Cc1ccc(CN2CCCC(CNC(=O)c3ccco3)C2)cc1 (centres undefined) | / | -5% | -1.7% | -3%
Nc1ccc(O)c2c(=O)cc(-c3ccccc3Cl)oc12 | -1&-1 | -1% | 0.2% | -78%

Next section
SMILES | GLA inh pH 4.5 | Rango release inh | Rango complex inh | miR-21 reporter
Clc1ss/c(=N\c2ccccn2)c1Cl | -3 | -20% | 0.1% | -8%
FC(F)(F)c1cc(N2CCOCC2)nc(-c2ccccc2)n1 | 5 | -1% | 3.0% | -4%
O=C(O)CC(C(=O)N(c1ccccc1)c1ccccc1)N1CCOCC1 (centres undefined) | / | -5% | -1.5% | 0%
COc1ccccc1CNC(=O)c1cnccn1 | 4 | -18% | -3.4% | -1%
CC(=O)c1cccc(OCc2cc(C(=O)N(C)CCc3cnn(C)c3)no2)c1 | / | 10% | -0.7% | -5%
O=C(Nc1ccc2oc(-c3ccccc3)nc2c1)c1cc(-n2cnnc2)ccc1Cl | -10 | -1% | -0.7% | -24%
COC(=O)C1=NN[C@H](C(=O)OC(C)(C)C)[C@H]1c1ccccc1 | -1 | -14% | 2.8% | 0%
COc1ccc(N2CC(C(=O)NCCc3ccc(Cl)cc3)CC2=O)cc1 (centres undefined) | / | -7% | -0.5% | 0%
Cc1cc(C)c2nc(-c3cccc(Cl)c3)c(C)c(C(=O)N3CCOCC3)c2c1 | / | -9% | 1.6% | -3%
CC1=CC(=O)[C@H]2C(C)(C)CCC[C@]2(C)[C@@]1(O)CO | -6 | -8% | 1.6% | 2%
N/C(Cc1ccc([N+](=O)[O-])cc1)=N\OC(=O)Cc1ccccc1 | -11 | 10% | 1.4% | -13%
Cc1ccc(NC(=O)NCc2nc3ccccc3n2C)cc1 | / | 1% | 1.6% | -6%
CCC(C)c1nc2c(c(N3CCC3=O)c1-c1ccccc1)CCCC2 (centres undefined) | / | -4% | 4.0% | /
COc1cccc(/C=N/NC(=O)CN(C2=NS(=O)(=O)c3ccccc32)c2ccccc2)c1 | -7 | -8% | -0.1% | 5%
O=C(Nc1ccccc1)N(C1=NCCC1)c1ccc(OC(F)F)cc1 | -3 | 0% | -5.3% | -27%
CC(OC(=O)c1ccc2c(c1)NC(=O)CS2)C(=O)c1ccc(F)cc1 (centres undefined) | / | 1% | 1.3% | /
S=c1[nH]nc(-c2ccco2)n1/N=C/c1ccc(Cl)cc1 | -1 | 15% | -0.6% | -12%
CCN(C(=O)CSc1nnc(Nc2ccccc2)s1)C1CCS(=O)(=O)C1 (centres undefined) | -3 | 1% | 0.1% | -4%
COc1ccc(C(CC(=O)O)NC(=O)COc2cc(C)ccc2C)cc1OC (centres undefined) | -8 | 28% | -1.4% | 0%
CC(=O)Nc1cccc(NC(=O)CSc2nc(=O)n3cccc(C)c3n2)c1 | / | 11% | -0.7% | /
C[n+]1cn(Cc2cc(Cl)ccc2OC(F)F)c2ccccc21 | / | 0% | 1.6% | 10%
Cc1c(-c2ccccc2)sc(Br)c1C(=O)N1CCOCC1 | 10 | 3% | 0.6% | 10%
O=S(=O)(Nc1nc2ccccc2nc1NCc1ccco1)c1cccs1 | -8 | -9% | 0.6% | -2%
O=C(Oc1ccc(C(=S)N2CCOCC2)cc1)c1cccc([N+](=O)[O-])c1 | / | -3% | 0.5% | -2%
CCC(c1nnnn1CCOC)N(Cc1cc2c(C)cc(C)cc2[nH]c1=O)CC1CCCO1 (centres undefined) | 6 | 4% | 2.3% | -9%

The list continues.
SMILES | GLA inh pH 4.5 | Rango release inh | Rango complex inh | miR-21 reporter
Cc1ccc(Nc2nc3ccccc3n3cnnc23)cc1C | / | -16% | -1.1% | -12%
O=C(c1c(F)cccc1F)N1CCCC1 | 3 | 0% | -1.8% | 2%
COc1ccnc(CSC(N)=Nc2ccc(F)cc2)c1 | -7 | -13% | 0.2% | -45%
Clc1ccc(OCc2cc(-c3ccccc3)no2)c(Cl)c1 | -5 | -11% | -1.2% | -41%
Cc1ccc(S(=O)(=O)N2CCC(NC(=O)c3ccccc3)CC2)cc1 | 0 | 29% | 1.2% | 0%
O=C(COc1cc(F)ccc1[N+](=O)[O-])Nc1cccc(Br)c1 | 4 | -6% | 0.3% | -12%
N#Cc1ccccc1/C=N/Nc1nc(-c2ccccc2)c2cc(Br)ccc2n1 | 0 | -10% | 0.2% | 0%
CC(=O)N/N=C(\N)c1nonc1N | -4 | 36% | -4.3% | -18%
CCCN(C(=O)C(C)Oc1cccc(Cl)c1)c1c(N)n(Cc2ccccc2)c(=O)[nH]c1=O (centres undefined) | / | -3% | 5.3% | 2%
O=C(N/C(=C/c1cccs1)C(=O)N1CCOCC1)c1ccccc1 | 9 | 3% | -2.1% | 2%
CC(=O)c1cccc(NC(=O)c2cc(-c3ccc(F)cc3)on2)c1 | -5 | 0% | 1.4% | -3%
Cc1cc(C)cc(N(CC(=O)NC(C)C)C(=O)CCC(=O)Nc2ccccn2)c1 | / | 5% | -0.7% | 0%
O=C(COc1ccc2oc(-c3ccco3)cc(=O)c2c1)N1CCCCC1 | 3 | 0% | 1.5% | -18%
N#CCC(=N)N1CCN(c2cccc(Cl)c2)CC1 | -1 | 3% | -1.6% | -7%
O=C(CCCN1C(=O)C2CC=CCC2C1=O)Nc1ccccc1F (centres undefined) | / | -12% | -2.3% | -15%
CC(C)(C)NC(=O)COC(=O)c1cc(F)c(F)cc1Cl | 0 | -11% | -0.1% | -3%
COc1ccccc1C(c1nnnn1C(C)(C)C)N1CCN(Cc2ccncc2)CC1 (centres undefined) | 0 | -7% | 3.9% | -3%
COc1ccccc1-n1nc(C)c(-c2ccccc2)c1N | 1 | 7% | -1.1% | -8%
COc1ccc(N2CCN(C(=O)CN3CCN(c4nc(-c5ccc(F)cc5)cs4)CC3)CC2)cc1 | -2 | 1% | -4.6% | -1%
CCN1CCN(C(c2cccs2)C(C)NS(=O)(=O)c2ccc(F)cc2)CC1 (centres undefined) | 8 | 2% | -0.5% | -7%
COc1cccc(NC(=O)CCNS(=O)(=O)c2ccc3c(c2)CC(C)N3C(=O)C2CC2)c1 (centres undefined) | / | -9% | 0.7% | 2%
CCC(C(=O)N1CCOCC1)n1nc(C)n2c(cc3cc(C)ccc32)c1=O (centres undefined) | / | 0% | 0.6% | -3%
Cc1nc(C(=O)NNC(=O)c2c(-c3c(Cl)cccc3Cl)noc2C)cs1 | -11 | 14% | -0.5% | 29%
COc1ccc(C(=O)NCCNC(=O)c2ccc(OC)cc2)cc1 | / | 16% | -0.4% | /
Brc1cccc(/C=N\n2cnnc2)c1 | -15 | -5% | -1.0% | -9%

Overlap with the part before: 5 compounds, followed by the next part.
SMILES | GLA inh pH 4.5 | Rango release inh | Rango complex inh | miR-21 reporter
COc1cccc(NC(=O)CCNS(=O)(=O)c2ccc3c(c2)CC(C)N3C(=O)C2CC2)c1 (centres undefined) | / | -9% | 0.7% | 2%
CCC(C(=O)N1CCOCC1)n1nc(C)n2c(cc3cc(C)ccc32)c1=O (centres undefined) | / | 0% | 0.6% | -3%
Cc1nc(C(=O)NNC(=O)c2c(-c3c(Cl)cccc3Cl)noc2C)cs1 | -11 | 14% | -0.5% | 29%
COc1ccc(C(=O)NCCNC(=O)c2ccc(OC)cc2)cc1 | / | 16% | -0.4% | /
Brc1cccc(/C=N\n2cnnc2)c1 | -15 | -5% | -1.0% | -9%
O=C(Nc1ccc(Cc2ccc(NC(=O)C3CC3)c(O)c2)cc1O)C1CC1 | 0 | 3% | -0.4% | 3%
O=C1CCC(=O)N(O)CCCCCNC(=O)CCC(=O)N(O)CCCCNC(=O)CCC(=O)N(O)CCCCCN1 | 6 | -6% | -1.2% | -1%
O=c1[nH]cnc2c1c(-c1ccccc1)cn2-c1ccc(F)cc1 | 0 | 0% | 5.8% | -6%
COc1cccc(NC(=O)C(OC(=O)c2ccc([N+](=O)[O-])o2)c2ccccc2)c1 (centres undefined) | -1 | -2% | -0.4% | 2%
O=C1CCC(=O)N1c1ccc(S(=O)(=O)Nc2cccc([N+](=O)[O-])c2)cc1 | / | -4% | -0.9% | -1%
CSc1nnc(NC(=O)c2cccc(S(=O)(=O)N3CCOCC3)c2)s1 | / | 4% | -0.3% | -8%
Cc1cc(=O)[nH]c(N2CCCC2)n1 | -2 | -4% | -0.2% | -11%
Cc1ccc(Oc2ccc(Cl)cc2NC(=O)c2ccc(F)cc2F)cc1 | -6 | 3% | 4.3% | -3%
Cc1nnc(NC(=O)CSc2nc3ccccc3o2)s1 | 1 | 0% | 0.2% | 0%
CCc1ccc(NC(=O)C(C)Sc2nc(-c3ccco3)c(C#N)c(=O)[nH]2)cc1 (centres undefined) | / | -1% | ? | 0%
COc1ccccc1-c1cccc([C@@H]2C[C@H]3[C@H](CON3C)CN2Cc2ccccc2)c1 | / | 9% | -2.1% | /
COc1ccc(C(NC(=O)CN2C(=O)NC3(CCc4ccccc43)C2=O)c2ccc(OC)cc2)cc1 (centres undefined) | / | -3% | -1.1% | /
COc1ccc(NC(=O)Nc2ncccc2C)cc1 | -4 | 16% | -2.1% | -34%
COc1cc(/C=C2\C(=O)N(c3ccccc3)N=C2C)ccc1Oc1ccc([N+](=O)[O-])cc1[N+](=O)[O-] | -6 | 7% | 0.8% | -15%
